Calb FLC – affects C. albicans growth with fluconazole. C. albicans CaCi-2 (fluconazole-resistant clinical isolate) + fluconazole, Alamar Blue growth, 48 h. growth inhibition, % (concentration not given with the values). 300,000 compounds, 0.57% hits. AID 1979;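 active means most replicates above 75%; inconclusive means exactly half above 75%; inactive means most below 75%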;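 further: all wells also contain fluconazole at 8 µg/ml as a sub-toxic cotreatment; 0% = median of DMSO wells and 100% = median of geldanamycin control wells; wells of about 8 µL received 7.5 nL stock; the first replicate is given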
HNF4A DNA FP – change in binding of human HNF4 alpha to DNA. 360,000 compounds, 0.3% hits. activity change, % at 10 µM. P41235. HNF4a-FITC DNA binding, fluorescence polarization, 1 h. AID 1224865; in the data active means activity change above about 30%, passing the limit was not always enough;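 further: controls were the assay level and a saturating level of protein; the project sought stronger binding though the title names inhibitors; some compounds called inactive have numbers as strong as hits; positive values seem to mean higher polarization but the record does not say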
Target sequence (P41235 whole entry, looked up): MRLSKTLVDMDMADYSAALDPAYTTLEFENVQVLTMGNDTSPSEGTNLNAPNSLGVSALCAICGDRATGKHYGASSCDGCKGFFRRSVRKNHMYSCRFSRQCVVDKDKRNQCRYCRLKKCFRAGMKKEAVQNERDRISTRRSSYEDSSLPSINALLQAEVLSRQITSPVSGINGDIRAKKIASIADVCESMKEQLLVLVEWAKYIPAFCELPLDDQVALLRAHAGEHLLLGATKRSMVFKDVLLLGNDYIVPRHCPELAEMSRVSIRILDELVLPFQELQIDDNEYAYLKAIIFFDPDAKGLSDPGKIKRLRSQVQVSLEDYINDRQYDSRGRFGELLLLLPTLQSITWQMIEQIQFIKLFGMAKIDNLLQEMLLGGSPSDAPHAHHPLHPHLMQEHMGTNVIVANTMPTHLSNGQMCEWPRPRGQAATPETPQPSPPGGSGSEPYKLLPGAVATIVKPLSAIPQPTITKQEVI
Vif A3G – HIV-1 Vif–A3G interaction blockers – biochemical, TR-FRET, GST-Vif 1-94, biotin-A3G peptide, dose response retest, primary screen (AID 1117319); TR-FRET GST-Vif / biotin-A3G peptide binding; higher % means a stronger effect; test concentration not given here; strong numbers were not always called active; inhibition, %; hits with a dose series show IC50 in µM; 260,000 compounds, 0.57% hits;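 active means above the screen mean plus three standard deviations and confirmed in dose response; inconclusive means results disagree or hit not tested in dose response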;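 further: Vif residues 1-94 fused to GST binding biotinylated APOBEC3G peptide 110-148; 0% = full assay without inhibitor and 100% = GST in place of GST-Vif; retest series ran down from 100 µM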
RanGTP-Impb inh – disruptors of Ran-importin-beta complex formation – biochemical, FRET, CFP-Ran, YFP-importin-beta, homogeneous, primary screen | cell-free CFP-Ran/YFP-importin-beta FRET ratio | inhibition, % (no concentration beside the values) | 300,000 compounds, 1.1% hits;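 active means most replicates above 15%; inconclusive means exactly half above 15%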;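 further: 0% = DMSO wells and 100% = Ran loaded with GDP instead of GTP; wells of about 40 µL received 100 nL stock; the first replicate is given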
Beta2AR agonist – agonists of human beta-2 adrenergic receptor inducing internalization; AID 504454; 340,000 compounds, 0.43% hits; response, % (test concentration not listed); P07550; Am2.2-beta2AR cells, FAP receptor internalization, flow cytometry; reference of the scale not given here;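 active means response above a set limit, near 3 SD of response in nonfluorescent compounds, cut at about 42% in these data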;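 further: stock transfer was 100 nL into about 11 µL; a reference agonist was the positive control; negative values mostly stem from fluorescent compounds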
Target sequence (P07550 whole entry, looked up): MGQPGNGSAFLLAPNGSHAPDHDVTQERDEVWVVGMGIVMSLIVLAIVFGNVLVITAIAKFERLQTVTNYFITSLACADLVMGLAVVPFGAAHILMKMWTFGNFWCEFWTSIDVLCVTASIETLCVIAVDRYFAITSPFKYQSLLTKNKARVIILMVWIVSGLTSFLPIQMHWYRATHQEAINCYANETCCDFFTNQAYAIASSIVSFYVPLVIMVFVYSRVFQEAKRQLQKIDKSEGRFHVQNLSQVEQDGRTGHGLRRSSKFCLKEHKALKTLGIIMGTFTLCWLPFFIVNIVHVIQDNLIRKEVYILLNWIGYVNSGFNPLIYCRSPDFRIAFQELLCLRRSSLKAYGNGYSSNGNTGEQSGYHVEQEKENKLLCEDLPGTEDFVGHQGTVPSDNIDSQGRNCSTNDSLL
LANA-H2B inh – blocks KSHV LANA binding to histone H2A/H2B; Q9QR71; cell-free LANA-H2A/H2B peptide, fluorescence polarization; inhibition, % (test concentration not listed); 320,000 compounds, 0.6% hits; AID 2629; in the data active means inhibition mostly above about 10%, no sharp cut-off; inactive means mostly below about 6.7%;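 further: stock transfer was 7.5 nL into about 10 µL; 0% = median of vehicle wells and 100% = median of positive control wells; one replicate is shown; the record names a cut of 25% in any replicate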
ALR inh – inhibitors of human sulfhydryl oxidase ALR. P55789. purified ALR, DTT oxidation, H2O2 HRP-luminol luminescence. inhibition, % (no concentration beside the values). 290,000 compounds, 3.8% hits;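 active means mean and each replicate at 75% or more; inconclusive means only one of the two met; inactive means neither met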;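 further: stock transfer was 7.5 nL into about 7.5 µL; 0% = neutral wells and 100% = wells with inactivated enzyme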
Target sequence (P55789 whole entry, looked up): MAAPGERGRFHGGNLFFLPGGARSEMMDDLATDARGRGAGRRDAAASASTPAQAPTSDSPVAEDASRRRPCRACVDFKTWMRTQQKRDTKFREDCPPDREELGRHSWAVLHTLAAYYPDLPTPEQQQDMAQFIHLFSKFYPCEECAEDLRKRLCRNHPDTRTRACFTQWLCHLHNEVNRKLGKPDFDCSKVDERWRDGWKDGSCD
Numbers without * were called inactive; ? = inconclusive; nt = not tested or not shown; & = joins results of further samples. An unsorted share of the library (roughly 6.3% active in at least one column).

The opening 2 entries as a preview:
SMILES | Calb FLC | HNF4A DNA FP | Vif A3G | RanGTP-Impb inh | Beta2AR agonist | LANA-H2B inh | ALR inh
Cc1ccc(C(=O)C2C(c3cccs3)NC(=O)NC2(O)C(F)(F)F)cc1 (centres undefined) | -7.4 | 1.7 | 73.1% | 6.0 | -1.3 | -7.5 | -18.4
CCC1=NN(C(=O)COc2ccccc2)C(O)(c2ccc(Br)cc2)C1 (centres undefined) | -11.8 | -1.1 | nt | 0.4 | -0.2 | 5.6 | nt

This part in full (from the top)
SMILES | Calb FLC | HNF4A DNA FP | Vif A3G | RanGTP-Impb inh | Beta2AR agonist | LANA-H2B inh | ALR inh
Cc1ccc(C(=O)C2C(c3cccs3)NC(=O)NC2(O)C(F)(F)F)cc1 (centres undefined) | -7.4 | 1.7 | 73.1% | 6.0 | -1.3 | -7.5 | -18.4
CCC1=NN(C(=O)COc2ccccc2)C(O)(c2ccc(Br)cc2)C1 (centres undefined) | -11.8 | -1.1 | nt | 0.4 | -0.2 | 5.6 | nt
CC(O)CNc1ccc(-c2nn(C)c(=O)c3ccccc23)cc1[N+](=O)[O-] (centres undefined) | 35.7 | 5.7 | 8.2% | -1.5 | 4.0 | 1.4 | -5.9
CCN1C(=O)/C(=C/C=C2\N(CC)c3cc(S(=O)(=O)N(C)C)ccc3N2c2ccccc2)SC1=S | -3.3 | 133.2 | -7.7% | -21.4 | -108.6 | -1.8 | -3.7
CCN(CC)S(=O)(=O)c1cccc(S(=O)(=O)c2cccc(S(=O)(=O)N(CC)CC)c2)c1 | -5.2 | 1.7 | -2.0% | 4.5 | 10.4 | 6.6 | -2.7
O=C(c1coc(=O)c(Br)c1)N1CCC(C(O)(c2ccccc2)c2ccccc2)CC1 | 1.7 | 2.1 | 15.0% | 0.8 | -0.3 | 0.7 | -2.5
CNc1c(NS(=O)(=O)c2ccc(CC(C)C)cc2)c(=O)oc2ccccc12 | 41.6 | 1.2 | nt | 3.3 | -0.7 | -0.9 | -2.6
O=C(NNC(=O)C1CC(=O)N(Cc2ccccc2)C1)c1ccc(F)cc1 (centres undefined) | 4.5 | -2.0 | 7.0% | -3.0 | 8.1 | -4.9 | -3.7
CC(Cl)C(=O)NNC(=O)CNS(=O)(=O)c1ccccc1 (centres undefined) | -0.3 | 0.7 | nt | 9.7 | -3.0 | -3.5 | -3.0
Cc1cc(C)c(OCC(=O)Nc2ccc(N3CCOCC3)cc2)c(Br)c1 | 6.1 | -2.4 | 0.9% | -0.8 | 0.5 | -5.6 | 4.7
CC(C)C[C@H](NC(=O)c1nc[nH]c1C(=O)NCC(=O)OC(C)(C)C)C(=O)OC(C)(C)C | 28.7 | -3.8 | 7.5% | -2.5 | -5.4 | -2.1 | -21.2
c1ccc(-c2nnc(N3CCOCC3)c3ccccc23)cc1 | -8.0 | -1.2 | ? | -0.6 | -7.0 | 1.8 | -1.1
CCCNC(=O)C(=O)N/N=C/c1ccc(OCc2ccccc2)cc1 | 4.0 | 0.2 | -1.0% | -0.1 | -5.8 | -7.7 | -13.0
Cc1cc(=O)[nH]c(SCCCOc2ccccc2Cl)n1 | 55.0 | 0.7 | -1.0% | -2.0 | -0.5 | -4.4 | -0.2
CC(C)[C@H](NC(=O)c1ccccc1Cl)C(=O)Nc1ccc(S(=O)(=O)Nc2nccs2)cc1 | nt | 4.4 | nt | nt | -1.1 | -3.2 | 2.4
O=C(CNC(=O)c1ccccc1)OCc1nnc(-c2ccc(Cl)cc2)o1 | -11.6 | 2.0 | 3.6% | 6.1 | 2.0 | 1.9 | -1.0
COc1ccc(CC(=O)Nc2ccc(N3CCCC3)c(C)c2)cc1 | 8.7 | 1.2 | nt | 7.1 | 7.9 | 2.3 | 69.6
COc1ccc(NC(=O)Cc2cccs2)cc1S(=O)(=O)N1CCCCC1 | nt | 1.9 | -0.4% | nt | -2.6 | 3.1 | -1.5
O=C(Cn1cc(C(F)(F)F)cc(Cl)c1=O)NCCc1ccccc1 | 4.7 | 1.4 | nt | 0.1 | 4.2 | nt | nt
CCN(C(=O)c1ccccc1F)c1nc(-c2ccc(OC)cc2)cs1 | -2.2 | 3.8 | nt | 4.0 | 8.8 | -3.2 | 6.0
Cc1cc(N2CCOCC2)c2c(N)c(C)cc(C)c2n1 | nt | 2.4 | 5.8% | nt | 5.9 | 2.1 | 99.2*
O=C(c1cc2c(=O)n3ccccc3nc2s1)N1CCN(Cc2ccccc2)CC1 | 20.4 | -1.9 | nt | 21.3* | -16.3 | -2.3 | -0.7
O=C(Nc1ccccc1Br)C1CCCN1S(=O)(=O)c1cccc2nsnc12 (centres undefined) | 1.4 | 2.4 | -3.7% | 0.3 | 5.9 | nt | -6.6
CCCCCn1c(=O)[nH]c2cc(C(=O)NCc3ccc4c(c3)OCO4)ccc2c1=O | -11.7 | 1.8 | -3.9%&1.7% | -7.6 | -12.6 | 3.2 | -5.6
O=S(=O)(c1ccc(-c2csc(-c3cccnc3)n2)cc1)N1CCOCC1 | 3.9 | -0.1 | -4.2% | -0.9 | -4.0 | 3.1 | -21.7

Next part:
SMILES | Calb FLC | HNF4A DNA FP | Vif A3G | RanGTP-Impb inh | Beta2AR agonist | LANA-H2B inh | ALR inh
C=CCOC(=O)C1=C(C)NC(SCC(N)=O)=C(C#N)C1c1cccs1 (centres undefined) | 6.9 | 2.7 | 2.1% | 9.0 | 10.2 | -9.2 | 43.9
O=C(C[C@@H]1C/C=C\C[C@H](Cc2ccc(F)cc2)C(=O)OC[C@@H](c2ccccc2)NC1=O)NCCO | nt | -1.3 | nt | nt | 4.9 | 1.5 | -1.3
CN(C)C(=O)N1CCN(C(=O)c2ccccc2Sc2ccccc2C#N)CC1 | -17.0 | -1.1 | -2.7% | 0.0 | 2.1 | -2.6 | -1.6
C=CCn1c(SCC(=O)Nc2nc(C)cs2)nnc1C(C)NC(=O)c1ccccc1Cl (centres undefined) | -2.2 | 4.8 | 5.2% | 6.3 | 11.0 | 1.2 | 94.3*
Nc1c(C(=O)CSc2n[nH]c(-c3ccccc3Br)n2)c(=O)[nH]c(=O)n1C1CC1 | nt | 2.8 | -9.4% | nt | 11.4 | 1.9 | 7.6
O=C(N/C(=C/c1cn(-c2ccccc2)nc1-c1ccccc1)C(=O)N1CCOCC1)c1ccccc1 | 2.2 | nt | nt | 5.7 | nt | -2.3 | 9.6
CC(=C/c1ccccc1)/C=N/NC(=O)c1cnccn1 | 9.4 | -0.1 | 5.3% | 0.5 | -15.4 | -2.3 | nt
Cc1ccccc1NC(=O)C1CCC(C)(C(=O)O)C1(C)C (centres undefined) | -1.8 | -3.8 | -4.5% | 0.5 | -2.8 | 9.3 | 3.8
Nc1ncnc(N)c1N=Nc1ccccc1 | 1.7 | 1.0 | -2.8% | -3.4 | 3.0 | 1.5 | -11.3
COc1ccc(NC(=O)CN(C)C(=O)c2ccc3c(c2)NC(=O)CS3)cc1 | nt | 4.5 | nt | nt | -1.7 | 4.0 | nt
Cc1cc(NC(=O)CSc2nnc3c(C)cc4cc(C)c(C)cc4n23)no1 | 1.3 | -6.6 | 1.1% | -1.1 | -4.2 | -0.8 | -24.1
COc1ccc(CCNC(=O)c2cc(-c3ccccc3)c(N3CCOCC3)s2)c(OC)c1OC | 5.0 | 1.0 | nt | 10.9 | 24.7 | -4.9 | 0.9
O=C(COC(=O)c1ccc(-c2cnc3ccccc3n2)cc1)c1ccccc1 | 9.1 | 2.7 | nt | 0.6 | -1.8 | -1.7 | -0.7
Brc1ccc2[nH]ncc2c1 | 9.4 | 0.5 | 21.4% | -1.4 | -2.9 | 6.9 | -4.0
COc1ccccc1NC(=S)NCc1ccc(Cl)cc1 | -7.8 | -3.0 | nt | 4.9 | 1.2 | 2.7 | -5.1
O=C(CSc1cn[nH]n1)Nc1ccccc1C(=O)O | 5.0 | -3.3 | nt | 1.5 | 10.4 | 2.9 | -0.5
O=C(Nc1cc(Cl)cc(Cl)c1)C(NCC1CCCO1)c1ccccc1 (centres undefined) | -4.2 | -2.3 | nt | -0.7 | -6.4 | -2.7 | -0.2
NC(=O)C1=C[C@@H](C2CCCCC2)C[C@@H](OCc2ccc(CO)cc2)O1 | 3.5 | 0.5 | nt | 0.4 | -3.5 | 0.3 | -12.8
COC(=O)c1ccc(OCCCCN(C)Cc2ccccc2)cc1 | 1.2 | 0.3 | nt | -1.5 | 5.8 | -4.0 | 5.4
CCCCOc1c(Cl)cc(C(=O)N2CCN(CC(=O)N3CCCC3)CC2)cc1OCC | nt | -0.5 | 6.8% | nt | -2.2 | nt | nt
O=C(CSc1nnc(CCc2nc3ccccc3[nH]2)n1-c1ccccc1)NCc1ccco1 | 10.6 | -1.8 | -4.3%&-1.7% | 0.1 | -0.1 | 1.3 | 9.3
CC1CCN(C(=O)c2cc(-c3ccc4c(c3)OCO4)on2)CC1 | -25.0 | 3.6 | nt | ? | 13.5 | 2.6 | -0.3
C#CCOCCOCCOCCNc1nc(N2CCN(C(=O)Cn3cc(CC(C)O)nn3)CC2)nc(N2CCN(C(=O)[C@H]([C@@H](C)CC)n3cc(CCCN=C(N)N)nn3)CC2)n1 (some centres undefined) | -9.5 | 3.5 | 11.0% | -3.3 | 3.6 | -8.7 | -9.2
COc1ccc(NC(=O)COC(=O)C2CCC2)cc1Cl | 1.7 | 4.9 | -4.0% | 4.8 | 5.1 | -2.7 | -4.6
Cc1ccc(NC(=O)CC2(CC(=O)O)CCCC2)c(C)c1 | 7.3 | 0.4 | 1.8% | 0.6 | 5.7 | 2.8 | nt

Other compounds
SMILES | Calb FLC | HNF4A DNA FP | Vif A3G | RanGTP-Impb inh | Beta2AR agonist | LANA-H2B inh | ALR inh
COc1ccc(C(C(=O)Nc2ccc(C(C)C)cc2)N(Cc2ccco2)C(=O)CC2NC(=O)NC2=O)cc1 (centres undefined) | -1.4 | -0.6 | -6.6% | -2.0 | -2.8 | 13.7 | -13.3
Cc1ccc(S(=O)(=O)N2CCN(Cc3cc(C(C)(C)C)ccc3O)CC2)cc1 | -6.3 | 1.8 | -1.4% | ? | -12.0 | 7.3 | -43.8
COc1cc(Nc2nc3ccc(Cl)cc3n3cnnc23)cc(OC)c1OC | 5.7 | 2.3 | -10.6% | 3.7 | -1.6 | -5.7 | -3.1
COc1ccc(OC)c(CCNC(=O)Cn2cccc2C(=O)c2ccccc2)c1 | -1.4 | 0.2 | 4.8% | -0.6 | 6.9 | -4.4 | -2.0
Cc1cccc(N2CCN(C(=O)C34CC5CC(CC(C5)C3)C4)CC2)c1C | 1.0 | -0.9 | 20.0% | 4.0 | 8.2 | 4.0 | 6.0
CCOc1ccc(OCCC(=O)Nc2ccc3c(c2)OCO3)cc1 | nt | 4.4 | 8.7% | nt | 4.0 | 4.7 | -0.9
Cc1nnc(SCC(=O)Nc2ccc(N3CCN(S(C)(=O)=O)CC3)cc2)o1 | ? | 1.8 | nt | -3.4 | -7.6 | 2.7 | -26.1
O=C(COC(=O)/C=C/c1ccc(Cl)c(Cl)c1)NC1CCS(=O)(=O)C1 (centres undefined) | nt | 1.5 | 3.0% | nt | -3.5 | 2.7 | -3.3
OC(CNCc1ccc(-c2ccccc2)cc1)c1ccccc1 (centres undefined) | -0.8 | 2.3 | 8.7% | -2.1 | 15.2 | 3.2 | -2.6
C/C(=N/NC(=O)c1ccoc1C)C12CC3CC(CC(C3)C1)C2 | 0.0 | -9.6 | 1.6% | 0.0 | -3.6 | -1.0 | -5.0
CC1CCN(S(=O)(=O)c2cccc(C(=O)O)c2)CC1 | -15.7 | -2.1 | ? | -4.4 | -4.3 | -0.1 | -31.7
NC(=O)CNC(=O)c1ccc(Cl)cc1 | -16.8 | 1.8 | -6.1% | 2.9 | 1.3 | 3.1 | -12.9
Cc1ccsc1/C=N\NC(=O)CCc1c(C)n[nH]c1C | -4.0 | 2.6 | nt | -1.8 | -1.7 | -2.4 | -1.1
